Screens deposited in PubChem BioAssay by National Center for Advancing Translational Sciences (NCATS).
YjeE inh – qHTS Assay for Inhibitors of YjeE. tRNA threonylcarbamoyladenosine biosynthesis protein TsaE (Escherichia coli (strain …. purified YjeE, fluorescence polarisation of a bound ADP probe. Potency, µM. actives 0.05% (n = 71,000); active = well fitted falling curve; inconclusive = weaker or top-dose-only fall, or a rising curve; inactive = flat or poorly fitted curve;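 note: top concentration of the series not given in the record; excess ADP was the control for the full effect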
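Purified YjeE (10 uM) with BODIPY Texas Red-labeled ADP probe (2 uM); compounds pin-transferred, 15 min at room temperature. Binding inhibition read as decreased fluorescence polarization; ADP titration as control.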
PK Bst – Pyruvate Kinase. partly purified Bacillus stearothermophilus pyruvate kinase, luminescence ATP production; ribose 5-phosphate activator present at AC10. Potency, µM. actives 1.2% (n = 51,000). AID 361, 2006; in the data active means potency below about 11 µM; inconclusive means mostly about 12 µM to 25 µM; inactive means weaker than that;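 the screen sought inhibitors and activators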;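 note: potency is the fitted concentration of half-maximal effect; scaled between full activation by ribose 5 phosphate and full inhibition by luteolin; about four in five hits inhibit and the cells do not say which; series up to 57 µM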
* hit, by the source's call.

`Cc1nc2ccc(-n3ccc(=O)cc3)cc2s1` gave YjeE inh inactive and PK Bst >57.
For CS(=O)(=O)N(Cc1ccco1)CC(O)Cn1c2ccccc2c2ccccc21 (stereo not drawn) the results were YjeE inh inactive.
For CC1(C)CC(=O)C2=C(C1)OC(N)=C(C#N)C21CCN(C(=O)OCc2ccccc2)CC1 the results were YjeE inh inactive and PK Bst >57.
Screening CCn1c2ccccc2c2cc(C3C(C#N)=C(C)NC(C)=C3C#N)ccc21 returned YjeE inh inactive and PK Bst >57.
Screening CCOC(=O)N1CCN(C(=O)CSc2nc3c(c(=O)n2-c2ccccc2OC)SCC3)CC1 returned YjeE inh inactive and PK Bst >57.
For CC(C)(C)NC(=O)c1ccc(NC(=O)C2COc3ccccc3O2)cc1 (stereo not drawn) the results were YjeE inh inactive and PK Bst >57.
CCOC(=O)c1cccc(NC(=O)CCS(=O)(=O)c2cccc3nsnc23)c1 was read as YjeE inh inactive and PK Bst >11.
`O=S(CC(O)COCc1ccc(Cl)cc1)c1ccccn1` (stereo not drawn) gave YjeE inh inactive.
Screening COC(=O)c1ccccc1NC(=O)NCc1ccccn1 returned YjeE inh inactive and PK Bst >57.
C=CCn1c(COc2ccc(Cl)cc2)nnc1SCC(=O)NCC(=O)OCC was read as YjeE inh inactive and PK Bst >57.
`CN(C(=O)COC(=O)c1nc(-c2ccccc2)n(-c2ccccc2)n1)C1CCS(=O)(=O)C1` (stereo not drawn) gave YjeE inh inactive and PK Bst >57.
`Cc1c(NC(=O)CC2CC(C)OC2=O)c(=O)n(-c2ccccc2)n1C` (stereo not drawn) gave YjeE inh inactive and PK Bst >57.
CN1CCN(c2ncc3nc(-c4ccc(Cl)cc4)c(=O)n(Cc4cccs4)c3n2)CC1 was read as YjeE inh inactive.
`Cc1c(NC(=O)CCN2C(=O)c3ccccc3C2=O)c(=O)n(-c2ccccc2)n1C` gave YjeE inh inactive.
CC(C)c1nnc(NC(=O)CCC(=O)N2CCN(C3CCCCC3)CC2)s1 was read as YjeE inh inactive and PK Bst >57.
Screening COc1ccc(OCC(=O)Nc2cccc(C(C)=O)c2)cc1 returned YjeE inh inactive.
O=C(CN1CCN(Cc2ccc3c(c2)OCO3)CC1)N1CCc2[nH]c3ccccc3c2C1 was read as YjeE inh inactive and PK Bst >57.
For CCOC(=O)c1cnn(-c2nc(CC)nc3sc4c(c23)CCC4)c1N the results were YjeE inh inactive and PK Bst >57.
Cc1ccc(S(=O)(=O)N(C)CC(=O)N2CCc3ccccc32)cc1 was read as YjeE inh inactive and PK Bst >57.
CCn1c(SCC(=O)NCc2ccco2)nnc1C(C)C was read as YjeE inh inactive and PK Bst >57.
For COc1ccc(NC(=O)c2cc(C)on2)cc1OC the results were YjeE inh inactive and PK Bst >57.
CCCCC(CC)COC(=O)c1ccc(N(C)C)cc1 (stereo not drawn) was read as YjeE inh inactive.
`O=C(NC1CCCC1)c1ccc(CS(=O)(=O)c2cccc(C(F)(F)F)c2)o1` gave YjeE inh inactive and PK Bst >57.
Cc1ccc(C(=O)NC(C)(COc2nonc2C)COc2nonc2C)cc1 was read as YjeE inh inactive and PK Bst >57.
Cc1cnc(CNc2ncncc2-c2cccc(C#N)c2)cn1 was read as YjeE inh inactive.
For CC1Cc2nc(SCC(=O)NC3CCCCC3)n(C)c(=O)c2S1 (stereo not drawn) the results were YjeE inh inactive and PK Bst >57.
Screening O=C(Nc1cccc(Cl)c1)Nc1nccs1 returned YjeE inh inactive.
For CNCCc1ccccn1 the results were YjeE inh inactive.
`C=CCN1CC(c2nc3ccccc3n2Cc2ccccc2)CC1=O` (stereo not drawn) gave YjeE inh inactive and PK Bst >57.
For CN(C)CCCN1C(=O)C(=O)/C(=C(/O)c2ccncc2)C1c1cccc(Br)c1 (stereo not drawn) the results were YjeE inh inactive and PK Bst >57.
O=C(Cn1cccc1C(=O)c1ccccc1)NCc1cccs1 was read as YjeE inh inactive and PK Bst >57.
`COc1ccc(NC(=O)c2oc3ccccc3c2C)c(OC)c1` gave YjeE inh inactive.
Screening CCOc1ccccc1NC(=O)CSc1nnc(Cc2cccn2C)n1-c1ccc(F)cc1 returned YjeE inh inactive.
`C=CC(C)(O)CCCC(C)CCCC(C)CCCC(C)C` (stereo not drawn) gave YjeE inh inactive.
Screening O=C(Cn1nc(C(F)(F)F)c2c1CCCC2)NC1CCCC1 returned YjeE inh inactive and PK Bst >57.
For COC(=O)c1cccc(NC(=O)CN2CCC(NC(=O)c3cc(OC)c(OC)c(OC)c3)CC2)c1 the results were YjeE inh inactive and PK Bst >57.
Screening CCCCCCn1c(CN2CCN(CCO)CC2)nc2c1c(=O)n(C)c(=O)n2C returned YjeE inh inactive.
`Cc1ccc(CS(=O)(=O)CCC(=O)NCCCN2CCCC2)cc1` gave YjeE inh inactive and PK Bst >57.
`COc1ccc(NC(=O)C2CSC3c4ccccc4C(=O)N23)cc1` (stereo not drawn) gave PK Bst 11*.
COc1cccc(C2=NOC(C(=O)Nc3cc(C)nn3-c3ccccc3)C2)c1OC (stereo not drawn) was read as YjeE inh inactive.
C=CCn1c(=O)c2ccccc2n2c(SCC(=O)c3ccccc3)nnc12 was read as YjeE inh inactive.
CCCC(c1nnnn1Cc1ccc(OC)cc1)N1CCN(c2ccccc2)CC1 (stereo not drawn) was read as YjeE inh inactive and PK Bst >57.
`CC(C)(C)Cn1nc(-c2ccc(Cl)cc2)c2c(N)ncnc21` gave YjeE inh inactive.
Screening CCC(C)C1C(C#N)=C(N)OC2=C1C(=O)CC(C)(C)C2 (stereo not drawn) returned YjeE inh inactive.
CC(C)CN=C(N)N=C(N)N was read as YjeE inh inactive.
`CC(C)(C)CNCCO` gave YjeE inh inactive.
Screening COc1ccccc1Nc1nc(C2(C)CCC(=O)O2)cs1 (stereo not drawn) returned YjeE inh inactive and PK Bst >11.
`CN[C@@H](c1ccncc1)[C@@H](NC)c1ccncc1` gave YjeE inh inactive.
For CCC(Sc1nc2cc(OC)c(OC)cc2c2nc(C)nn12)C(=O)NCc1ccco1 (stereo not drawn) the results were YjeE inh inactive and PK Bst >57.
For CCOc1ccc(NC(=O)CSc2nc3c(c(=O)n2C)SC(C)C3)cc1 (stereo not drawn) the results were YjeE inh inactive.
Cc1ocnc1C(=O)Nc1ccc(Cl)cc1 was read as YjeE inh inactive.
Screening N#Cc1c(/N=C/c2ccco2)sc2c1CCCCC2 returned YjeE inh inactive and PK Bst 0.52*.
Screening COC(=O)Cn1c(=O)cnc2ccccc21 returned YjeE inh inactive and PK Bst >57.
For CC12C(=O)N(CCC(=O)O)C(=O)C1C1C=CC2C1 (stereo not drawn) the results were YjeE inh inactive and PK Bst >57.
Cc1nnc(SCC(=O)NCc2ccc(Cl)cc2)[nH]c1=O was read as YjeE inh inactive and PK Bst >57.
Screening CC(C)(C)OC(=O)N1CCC[C@H]1c1nnc(SCc2c(Cl)cccc2Cl)o1 returned YjeE inh inactive and PK Bst inconclusive.
CCOC(=O)CSc1cccc2cccnc12 was read as YjeE inh inactive and PK Bst >57.
`COc1ccc(NS(=O)(=O)c2cc(C(=O)O)ccc2C)cc1` gave YjeE inh inactive and PK Bst >57.
CN(C)c1ccc(-c2cncnc2N(C)Cc2ccco2)cc1 was read as YjeE inh inactive.
Cc1cc(=O)[nH]c(SC/C=C/c2ccccc2)n1 was read as YjeE inh inactive and PK Bst >57.
`Cc1ccc(N2C(=O)c3n[nH]c(C)c3C2c2ccccn2)cc1` (stereo not drawn) gave YjeE inh inactive and PK Bst >57.
`COC(=O)c1ccc(COc2cccc(OC)c2)o1` gave YjeE inh inactive and PK Bst >57.
For C=CC(C)Sc1nc2c(c(=O)n(C)c(=O)n2C)n1Cc1ccccc1Cl (stereo not drawn) the results were YjeE inh inactive.
`COc1cccc(N(C(=O)c2ccco2)C(C(=O)NC2CCCC2)c2cccnc2)c1` (stereo not drawn) gave YjeE inh inactive and PK Bst >57.
Screening CCC(=O)Nc1cc(C(F)(F)F)ccc1N1CCOCC1 returned YjeE inh inactive and PK Bst >57.
`Cc1cc(N(C)C)c(C#N)c(NCc2ccccc2)n1` gave YjeE inh inactive and PK Bst >57.
CC(C)[C@H](NC(=O)NCc1ccc(Cl)cc1)C(=O)O was read as YjeE inh inactive and PK Bst >57.
Screening CCC(C)(C)n1nnnc1C(c1cccs1)N1CCc2ccccc21 (stereo not drawn) returned YjeE inh inactive and PK Bst >57.
For O=C(NCCCN1CCCC1=O)c1ccc(Cl)c(NS(=O)(=O)c2ccc(F)cc2)c1 the results were YjeE inh inactive and PK Bst >57.
`COc1cc(NC(=O)c2cc(-c3cccc(O)c3)on2)cc(OC)c1OC` gave YjeE inh inactive.
Screening COC(=O)C1=C(C)Nc2ncnn2C1c1ccco1 (stereo not drawn) returned YjeE inh inactive and PK Bst >57.
O=C1c2ccncc2C(=O)N1C1CCCCC1 was read as YjeE inh inactive and PK Bst >57.

Three entries picked at random from those above, as already listed:
`COc1cccc(N(C(=O)c2ccco2)C(C(=O)NC2CCCC2)c2cccnc2)c1` (stereo not drawn) gave YjeE inh inactive and PK Bst >57.
For O=C(NCCCN1CCCC1=O)c1ccc(Cl)c(NS(=O)(=O)c2ccc(F)cc2)c1 the results were YjeE inh inactive and PK Bst >57.
O=C1c2ccncc2C(=O)N1C1CCCCC1 was read as YjeE inh inactive and PK Bst >57.

Further compounds follow:
`Cn1cnc2c1c(=O)n(Cc1ccccc1)c(=O)n2C` gave YjeE inh inactive.
For Cc1noc(C)c1C(=O)Nc1sc(C)c(C)c1C#N the results were YjeE inh inactive and PK Bst >57.
Cc1cccc(Nc2ncccc2C(=O)O)c1C was read as YjeE inh inactive and PK Bst >57.
For C1=C(CCNc2ncnc3nc[nH]c23)CCCC1 the results were YjeE inh inactive.
Screening O=C(Nc1ccc(Cl)cn1)c1cnn2cccnc12 returned YjeE inh inactive and PK Bst 8.7*.
CC12CC(NC(=O)N1CCc1ccccc1)c1ccccc1O2 (stereo not drawn) was read as YjeE inh inactive and PK Bst >57.
Screening O=C(CCn1ccc2ccccc21)Nc1ccc(N2CCOCC2)cc1 returned YjeE inh inactive and PK Bst >57.
CSc1nc2ccc3nc(NC(=O)c4cccs4)sc3c2s1 was read as YjeE inh inactive and PK Bst >57.
O=C(C1=C(O)C(=O)N(CCOCCO)C1c1cccs1)c1cccs1 (stereo not drawn) was read as YjeE inh inactive and PK Bst >57.
Screening CCc1nc(SCC(=O)N2CCN(c3ccccc3)CC2)c2c(=O)n(C)c(=O)n(C)c2n1 returned YjeE inh inactive.
Screening CC(=O)OC1CC(C)(C)N(OC(=O)CCCN2C(=O)c3ccccc3C2=O)C(C)(C)C1 returned YjeE inh inactive and PK Bst >57.
For Cn1ncc2c(N3CCOCC3)ncnc21 the results were YjeE inh inactive and PK Bst >57.
O=C(c1ccccc1)c1cccn1CC(=O)N1CCN(C2CCCCC2)CC1 was read as YjeE inh inactive and PK Bst >57.
Screening CCOC(=O)c1cc(C)n(CCCN2CCOCC2)c1C returned YjeE inh inactive and PK Bst >57.
For CCCC(=O)Nc1nc2ccc(NC(=O)c3ccc(Br)o3)cc2s1 the results were YjeE inh inactive and PK Bst >57.
`CC(C)(C)c1ccc(OCCn2ccccc2=O)cc1` gave YjeE inh inactive.
For COc1ccc(Cc2c(O)nc(SC)n(C(C)=O)c2=O)cc1 the results were YjeE inh inactive and PK Bst >57.
For COC(=O)c1cc(COc2ccc3c4c(c(=O)oc3c2)CCCC4)c(C)o1 the results were YjeE inh inactive.
Screening O=C(NCc1ccccc1)NC1CC2CCC(C1)N2Cc1ccco1 (stereo not drawn) returned YjeE inh inactive and PK Bst >57.
CCC(C(=O)OCC(=O)Nc1c(C)n(C)n(-c2ccccc2)c1=O)c1ccccc1 (stereo not drawn) was read as YjeE inh inactive and PK Bst >57.
For CCCCN1CC(O)=C(c2nc3ccccc3[nH]2)C1=N the results were YjeE inh inactive and PK Bst >57.
Screening O=S(=O)(O)c1cc(N=Nc2cccc3ccccc23)c(O)c2ncccc12 returned YjeE inh inactive.
For O=C(CN1CCCCCC1)NCCc1ccc(F)cc1 the results were YjeE inh inactive and PK Bst >57.
`COc1ccccc1NC(=O)Cn1nnc(C(=O)Nc2ccccc2)c1N` gave YjeE inh inactive and PK Bst >57.
`COc1cc(S(=O)(=O)n2c(C)nc3ccccc32)ccc1F` gave YjeE inh inactive and PK Bst >57.

Quoted from the entries so far for reference:
CCC(C(=O)OCC(=O)Nc1c(C)n(C)n(-c2ccccc2)c1=O)c1ccccc1 (stereo not drawn) was read as YjeE inh inactive and PK Bst >57.
For CCCCN1CC(O)=C(c2nc3ccccc3[nH]2)C1=N the results were YjeE inh inactive and PK Bst >57.
Screening O=S(=O)(O)c1cc(N=Nc2cccc3ccccc23)c(O)c2ncccc12 returned YjeE inh inactive.
For O=C(CN1CCCCCC1)NCCc1ccc(F)cc1 the results were YjeE inh inactive and PK Bst >57.
`COc1ccccc1NC(=O)Cn1nnc(C(=O)Nc2ccccc2)c1N` gave YjeE inh inactive and PK Bst >57.
`COc1cc(S(=O)(=O)n2c(C)nc3ccccc32)ccc1F` gave YjeE inh inactive and PK Bst >57.

The list is partial; count on the stated rates, not on these rows.
